Compound activity as filed in PubChem.
CapD inh: inhibitors of Bacillus anthracis CapD enzyme; purified CapD enzyme, fluorescence intensity read-out; stronger effect = lower value; some hits fall short of the stated cut; z-score (test concentration not listed); hit rate 0.23% among 140,000;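 active means z-score under -4 in either of two replicates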;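 further: stock transfer was 100 nL into about 40 µL; score is relative to mean and spread of the plate; one replicate is shown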
AID504770: growth inhibitors of E. coli YBA685 in a screen for V. cholerae RctB (chromosome II replication) inhibitors. hit rate 0.27% among 130,000. E. coli YBA685 rctB-dependent plasmid, OD600 growth, 3 h; stronger effect = lower value. AID 504770. z-score (no concentration beside the values);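 active means z-score under -2 on both plates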;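 further: wells of about 30 µL received 100 nL stock; score is relative to mean and SD of the test wells; the first replicate is given; strong numbers were not always called active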
Numbers without * were called inactive; / = not tested or not shown; & = joins results of further samples. The list is partial; rates above refer to the full screens.

No.	SMILES	CapD inh	AID504770
1	COCCNC(=O)c1ccc2c(=O)n(Cc3ccc(Cl)cc3)c(SCc3cc(C(C)=O)ccc3OC)nc2c1	0.995	/
2	CC12CNC3(CO)CC1CCC32C (centres undefined)	-0.03	0.1
3	O=S(=O)(c1ccccc1)N1CCc2ccccc2C1	/	2.2
4	OCC(O)CNC(=S)NC1CCCCC1 (centres undefined)	/	-0.4
5	O=C(CN1/C(=C(/O)c2ccccc2)C(=O)c2ccccc2S1(=O)=O)c1ccccc1	0.1	1.95
6	O=c1n(Cc2ccccc2)c2ccccc2n1Cc1ccccc1	6.02	0.65
7	CSc1nnc(C2CCN(C(=O)N3CCCC3)CC2)n1C	/	0.1
8	COc1cc(CC#N)ccc1C	/	0.65
9	CN1C(=O)CS/C1=C\C(=O)c1cccs1	/	-0.25
10	O=C(COc1ccccc1)NN=C1CSc2sc(=O)sc2SC1	-0.39	/
11	COc1ccccc1CNC(=O)CSc1nc2[nH]ncc2c(=O)n1-c1cccc(C(F)(F)F)c1	-0.025	/
12	C=CCn1c(=O)/c(=C/c2ccc3c(c2)OCO3)s/c1=C(/C#N)C(=O)C(C)(C)C	/	-0.35
13	COC(=O)C1SCCN1C(=O)c1cc(-c2ccccc2)oc1C (centres undefined)	0.165	-0.35
14	Cn1c2c(c3cc(C4CCCCC4)ccc31)C(=O)CCC2	30.5	0.2
15	CSC1=N/C(=C/c2cccnc2)C(=O)N1Cc1ccccc1	42.7	0.3
16	CC(=O)NC(C)(C)C1CC=C(C)/C(=N\O)C1 (centres undefined)	-0.05	0.1
17	Cc1ccc(S(=O)(=O)NNC(=S)Nc2cccc(F)c2)cc1	0.42	/
18	Cc1cccc(C(=O)NCCn2ccc3ccccc32)c1	-0.71	1.4
19	COc1ccccc1N1CCN(C(=O)c2sc3ncn(CC(=O)N4CCC(C)CC4)c(=O)c3c2C)CC1	-0.975	/
20	CCOC(=O)c1c(Nc2ccc(Cl)cc2)cc(C)nc1C	-0.005	0.25
21	O=C(CN1C(=O)/C(=C2\SC(=S)N(CCS(=O)(=O)O)C2=O)c2ccccc21)Nc1cccc(C(F)(F)F)c1	-1.34	/
22	O=C(OCc1cc(=O)oc2cc3c(cc12)CCC3)C1CC(=O)N(Cc2ccco2)C1 (centres undefined)	/	-0.55
23	CC1CCCC(NC(=O)COC(=O)c2ccc(Br)cc2)C1C (centres undefined)	-0.655	1.1
24	COC(=O)c1ccc(COC(=O)c2ccccc2C(F)(F)F)cc1	0.53	0.45
25	CCCCOc1cccc(C(=O)N2CCCCC2C)c1 (centres undefined)	-0.24	-0.15
26	CSc1sc(C(=O)N/N=C/c2cccs2)c2c1C(O)CCC2 (centres undefined)	7.82	-0.6
27	CCS(=O)(=O)N1CCc2cc(C(=O)COC(=O)c3cn(C)c4ccccc34)ccc21	/	-0.05
28	O=C1c2cc(-c3nc(-c4ccc(F)cc4)[nH]c3-c3ccccc3)ccc2-c2ccc([N+](=O)[O-])cc21	-0.04	/
29	CCC(C)OC(=O)CSc1ncnc2sc3c(c12)CCC(C)C3 (centres undefined)	-1.69	2.4
30	CN(N=O)C(=O)NC1[C@@H](O)OC(CO)[C@@H](O)[C@H]1O (some centres undefined)	-0.175	/
31	NC(=S)Nc1ccc(C(F)(F)F)cc1Cl	0.745	-1.2
32	CC(C)c1cc(C(=O)NC2CCCCC2)no1	-0.345	-0.9
33	CC1(C(=O)c2ccccc2)C2c3cc(Br)ccc3OC(=O)C21C(=O)c1ccco1 (centres undefined)	-0.69	-0.3
34	Cc1ccc(Sc2cc(CS(=O)(=O)c3ccccc3)nc(C)n2)cc1	0.065	/
35	CC1=NN(c2ccc(Cl)c(C(=O)O)c2)C(=O)/C1=C/c1cccc(OC(=O)c2cccs2)c1	-1.75	/
36	Cc1cccc(C)c1NC(=O)c1cnc(NC2CCCCC2)cc1C(F)(F)F	19	0.75
37	Cc1ccc(NC(=O)C(C)Sc2nnc(C)n2C)cc1 (centres undefined)	/	-1.2
38	Cc1ccc2onc(CNC(=O)NCCN3CCc4ccccc4C3)c2c1	-0.4	0.1
39	O=C(c1cccc(C(F)(F)F)c1)N1CCN(c2ccc(N3CCCCCC3)nn2)CC1	/	1.1
40	CSc1nnc(NC(=O)c2cccc3ccccc23)s1	/	-0.65
41	COc1ccc(-c2cnnn2-c2ccc(N)cc2)cc1	0.205	1
42	c1ccc(Nc2nc(Nc3ccccc3)nc(Oc3ccccc3)n2)cc1	-0.455	0.65
43	Cc1cccc(Cl)c1S(=O)(=O)N1CCN(C(C)c2ccccc2)CC1 (centres undefined)	-0.565	/
44	CC(C)OC(=O)c1ccc(NC(=O)c2ccc(Cn3cc(Br)cn3)cc2)cc1	-0.645	0.3
45	Cc1ccc(CNC(=O)Nc2ccc3c(c2)N(C)C(=O)c2ccccc2S3)cc1	-0.035	-0.35
46	O=C1CSC(c2ccccc2)N1CCc1ccccc1 (centres undefined)	-0.14	-0.05
47	O=C(OCCOc1ccc2ccccc2c1)N1CCN(c2ccccn2)CC1	3.5	/
48	CCc1c(/C(C)=N/O)oc2ccc3c(C)cc(=O)oc3c12	-0.115	/
49	NC(=O)C1CCN(C(=O)c2ccc3c(=O)n(-c4cc(C(F)(F)F)ccc4Cl)c(=S)[nH]c3c2)CC1	-0.34	/
50	CCOC(=O)C1CCN(C(=O)Cc2cccc3ccccc23)CC1	/	0.8

Additional compounds follow.
No.	SMILES	CapD inh	AID504770
51	CCCc1nc2ccccc2c2c1C(=O)N(NC(=O)CSc1c(C)[nH]c3ccccc13)C2=O	0.16	/
52	CN(C)CCN(C)C	/	0.05
53	CSc1nnc(CNC(=O)COc2ccccc2)n1-c1ccc(F)cc1	-0.115	-0.9
54	Cc1csc(-c2coc3cc(OCC4OC(CO)C(O)C(O)C4O)ccc3c2=O)n1 (centres undefined)	3.34	/
55	CC(C)NCC(O)Cn1c2c(c3ccccc31)CCc1c-2cnn1-c1ccccc1 (centres undefined)	44	-0.3
56	CCSC1(SCC)N=C(N)C2(C#N)C(c3ccc(OC)cc3)C12C#N (centres undefined)	0.135	0.3
57	O=C1C(=Nc2ccc(F)cc2)c2ccccc2N1c1ccccc1	-0.86	0.7
58	CCOC(=O)C1CCN(C(=O)c2sc3ncn(CCOC)c(=O)c3c2C)CC1	5.74	/
59	Cc1cc(F)ccc1S(=O)(=O)Nc1ccc2oc3c(c2c1)C(=O)CC(C)(C)C3	-0.325	1.85
60	CS(=O)(=O)Nc1ccccc1C(=O)NCCN1CCOCC1	15.7	0.65
61	CC1=C(C(=O)Nc2ccc(Br)cn2)C(c2ccsc2)C2=C(CC(C)(C)CC2=O)N1 (centres undefined)	40.5	/
62	O=C1CC(Nc2ccccc2)C(=O)N1c1ccccc1Cl (centres undefined)	0.14	-0.5
63	OC1CCN(Cc2cccc3ccccc23)CC1	0.36	-0.35
64	O=C(NO)c1ccccc1C(F)(F)F	0.34	-1.25
65	C=CCNC(=O)c1cc(-c2ccc(Cl)cc2)on1	-0.16	0.55
66	O=C(Cn1ncn2c(cc3sccc32)c1=O)NCc1ccccc1	-0.4	0.05
67	Cc1nc2c(Cl)cc(Cl)cc2[nH]1	/	-1.35
68	COC(=O)C1=CN(Cc2ccc(F)cc2)C=C(C(=O)OC)C1c1cc(Br)c(O)c(OC)c1	19	/
69	Cc1c(C=Nc2ccc(Cl)cc2)c(O)n(C)c(=O)c1C#N	/	-0.55
70	COc1ccc2c(C)cc(=O)[nH]c2c1	32&14.9	-0.25&0.1
71	Nc1ncc(-c2cnc3ccccc3n2)c(-c2ccc(C(F)(F)F)nc2)n1	-0.155	/
72	Cn1c(C(=O)N2CCC(C(=O)NCc3ccccc3Cl)CC2)cc2oc3ccccc3c21	-0.83	0.3
73	CCc1cccc(C)c1NC(=O)CN(C)C1=NS(=O)(=O)c2ccccc21	/	0.25
74	O=c1oc2ccccc2c(O)c1Cc1c(O)c2ccccc2oc1=O	-0.135&-0.365	-1.7&0.45
75	Cc1cc(NC(=O)c2sccc2C)n(CCOC(=O)c2sccc2C)n1	/	0.25

Structural class: the entries above with a cyano group (four)
No.	SMILES	CapD inh	AID504770
8	COc1cc(CC#N)ccc1C	/	0.65
12	C=CCn1c(=O)/c(=C/c2ccc3c(c2)OCO3)s/c1=C(/C#N)C(=O)C(C)(C)C	/	-0.35
56	CCSC1(SCC)N=C(N)C2(C#N)C(c3ccc(OC)cc3)C12C#N (centres undefined)	0.135	0.3
69	Cc1c(C=Nc2ccc(Cl)cc2)c(O)n(C)c(=O)c1C#N	/	-0.55

Going on with the list.
No.	SMILES	CapD inh	AID504770
76	COc1cccc(/C=C2\SC(=N)N(c3ccc4c(c3)OCO4)C2=O)c1OC	-0.875	/
77	CC(=O)NC(Cc1c[nH]c2ccccc12)C(=O)NCc1ccc(C(C)(C)C)cc1 (centres undefined)	0.095	0.6
78	COC(=O)c1nn(-c2ccccc2)c(Sc2ccc(Cl)cc2)c1/C=N/O	0.5	/
79	Cc1ccc(NC(=O)C(C#N)Cc2ccncc2)cc1C (centres undefined)	/	-0.55
80	NC1(CN2CCCCC2)CCCCC1	/	1.05
81	Cc1cccc(-c2noc(-c3ccccc3C(=O)NCc3cccnc3)n2)c1	-0.87	-0.7
82	CCOC(=O)c1c(NC(=O)C(C)Sc2nnc(CNC(=O)c3cc(OC)cc(OC)c3)n2C)sc2c1CCC2 (centres undefined)	-0.715	/
83	COc1ccc(NC(=O)c2cc3ccccc3oc2=O)cc1	-0.29	-0.75
84	CC(=O)Oc1ccc(OC(C)=O)cc1	/	0.45
85	COc1cccc(/C=N/NC(=O)Cc2csc(-c3ccccc3)n2)c1O	3.47	/
86	O=S(=O)(CC(O)(c1ccccc1)c1ccccc1)c1cccc(Cl)c1	-0.285	/
87	COCCn1c(O)c(C=NCCn2c(C)nc3ccccc32)c(=O)[nH]c1=S	/	-0.65
88	CCOc1ncnc2cc(OC)c(OC)cc12	0.02	0.1
89	CCC(C(=O)NCc1ccco1)n1nc(C)c2sc3ccccc3c2c1=O (centres undefined)	3.6	-0.2
90	Cc1ccc(NC(=O)c2sc3nc(N)c(C#N)cc3c2N)cc1	0.99	0.2
91	CCOC(=O)c1c(C)n(CCO)c2ccc(O)cc12	3.08	-0.4
92	Cc1csc(NC(=O)c2cc3c(s2)-c2c(C)cccc2OC3)n1	18.5	-0.5
93	CC(C)=NNC(=O)CNc1ccccc1Cl	/	-0.25
94	O=C(Cc1cccs1)NC1C(=O)N2C(C(=O)[O-])=C(C[n+]3ccccc3)CSC12 (centres undefined)	-0.46	0.15
95	COC(=O)c1sccc1Oc1nccc(C(F)(F)F)n1	-0.2	0.2
96	CC(C)(C)NC(=O)CCN1C(=O)/C(=C/c2ccccc2)SC1=S	0.1	-0.4
97	O=C1CC(=O)CC(c2cccs2)C1	-0.605	-0.75
98	Cc1ccc(C(=O)NC(C)c2ccc(S(N)(=O)=O)cc2)s1 (centres undefined)	/	0.25
99	O=C(/C=C/c1ccc(Cl)cc1Cl)c1sccc1Br	-1.19	/
100	CCOC(=O)N1CCN(C(=O)c2sc3ncnc(N(CC)CC)c3c2C)CC1	-0.075	/
101	COc1ccc(Oc2c(C(F)(F)F)oc3cc(OC(=O)c4ccco4)ccc3c2=O)cc1	0.005	/
102	Cc1cc(C)cc(C(=O)N(C(C)C)C(C)C)c1	0.16	-0.45
103	CC(C)Cn1cnc2c(c(-c3ccccc3)c(-c3ccccc3)n2Cc2ccco2)c1=N	0.35	-0.25
104	Cn1c(SCc2cc(F)cc3c2OCOC3)nnc1C(F)(F)F	-0.02	2.5
105	Cn1c(C(=O)O)c(CC(=O)N2CCN(Cc3ccccc3)CC2)c2ccccc21	0.565	0.1
106	Cc1ccc(NC(N)=O)cc1	0.705	-0.05
107	CC1CCC(C(=O)NC(C(=O)N2CCN(Cc3ccccc3)CC2)C(C)C)CC1 (centres undefined)	-0.19	-0.35
108	COc1ccc(C2=NN(C(C)=O)C(c3cn(-c4ccccc4)nc3-c3ccccc3)C2)cc1 (centres undefined)	2.66	/
109	Cc1ccc(/C=N\N2CCN(c3ccccc3)CC2)cc1	0.275	0.5
110	Cc1cc(C)n(CCCNC(=O)Cn2cnc3ccccc3c2=O)n1	/	1.15
111	Cc1ccc(C=C(C#N)C#N)o1	-3.89	-0.65
112	Cc1ccc(S(=O)(=O)N2CCN(S(=O)(=O)N(C)C)CC2)cc1	0.045	0
113	CC(C)NC(=O)c1cccnc1Nc1cccc(C(F)(F)F)c1	/	2.05
114	O=C(C1CCN(Cc2cnn(-c3ccccc3)c2-n2cccc2)CC1)N1CCN(c2ccccc2)CC1	0.03	-1.3
115	CCCc1[nH]n(-c2nc3ccccc3s2)c(=O)c1C(C)=Nc1cccc(F)c1	-0.145	/
116	Cn1c(=S)[nH]c2c(c1=O)C1(CCCC1)Cc1ccccc1-2	/	-0.5
117	CSc1sc(C(=O)O)c(-c2cccc(Cl)c2)c1C#N	-0.145	/
118	COc1ccccc1Nc1nc(Nc2ccccc2OC)nc(N2CCOCC2)n1	0.2	/
119	CCN(CC)Cc1c(O)ccc2cc(-c3ccc(OC)c(OC)c3)c(=O)oc12	2.83	-0.65
120	Cc1cc(C)nc(N2Cc3ccccc3C2=N)n1	-1.13	-1
121	COC(=O)COc1ccc(/C=C2\C(=O)NC(=S)N(c3ccccc3)C2=O)cc1OC	-0.29	/
122	Cc1cc2cc(CCNS(=O)(=O)c3ccccc3)c(=O)[nH]c2cc1C	/	-0.75
123	O=C(NCC(F)(F)C(F)F)c1ccncc1	0.355	-0.35
124	CC(C)CN(CC(C)C)C(=O)CSc1nnc(-c2cccc(Cl)c2)n1N	/	1.05
125	COc1cc(C2C(C#N)=C(N)N(c3ccc(F)cc3)C3=C2C(=O)CCC3)cc(OC)c1OC (centres undefined)	-1.76	/
126	c1ccc(Nc2ncnc3nc[nH]c23)cc1	-0.015	-0.9
